Screening results (PubChem)
PrP UTR inh = suppresses PrP 5' UTR mRNA reporter expression. inhibition, % (no concentration beside the values). cell-based PrP 5' UTR mRNA reporter, plate reader. AID 488862. hit rate 0.35% among 340,000;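 active = every replicate at 50% or more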;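 also: 0 = median of the neutral control wells; tested in H4 reporter cells; numbers are from one replicate; inactives centre near -14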
Sa RN4220 lethal = kills Staphylococcus aureus RN4220; AID 1259311; hit rate 0.33% among 330,000; inhibition, % (no concentration beside the values); S. aureus RN4220 growth, OD600, 16 h;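 active = z-score of -3 or lower and OD600 up to 0.18 on both plates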;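 also: plate controls were untreated cells for no effect and reference antibiotic for full effect; stock transfer was 100 nL into about 80 µL; one replicate is shown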
BJeLR viability = BJeLR cell viability loss; BJeLR (HRASV12) viability, CellTiter-Glo ATP luminescence, 48 h; reference of the scale not given here; inhibition, % (no concentration beside the values); hit rate 0.17% among 300,000;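 active = replicate mean above 50%; inconclusive = above 50% but judged a plate artefact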;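 also: 50 nL library stock added to about 25 µL; numbers are from one replicate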
Mtb hypoxia inh = reduces hypoxia-regulated biosensor signal in M. tuberculosis; M. tuberculosis hypoxia-regulated fluorescent reporter, fluorescence; fluorescence inhibition, % (test concentration not listed); AID 1159583; hit rate 0.1% among 300,000;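 active = 35 to 45% if threefold the growth effect, above 45% if 1.5-fold the growth effect; inactive = the rest, general growth blockers included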;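 also: wells of about 50 µL received 100 nL stock; 0% = vehicle wells and 100% = reference inhibitor wells; whole bacteria with a GFP reporter of the hypoxia response; strong numbers were not always called active; many hits fall short of the cut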
Bead autofluor = compound fluorescence in toxin protease inhibitor counterscreen; fluorescence intensity (test concentration not listed); AID 624483; compound autofluorescence counterscreen, microsphere flow cytometry; active compounds read high; hit rate 3.1% among 360,000;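 active = at least 3 SD above the mean of all compounds, about 16000 in these data; inconclusive = too few beads counted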;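 also: 100 nL of 1 mM stock went into each well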
Sa ugtP lethal = kills S. aureus RN4220 lacking UgtP. growth inhibition, % (concentration not given with the values). S. aureus RN4220 ugtP deletion, OD600 growth, 16 h; some inactives read as strong as hits. AID 1259309. hit rate 0.54% among 330,000;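 active = z-score under -3 and OD600 up to 0.15 on both plates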;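 also: plate controls were untreated wells for no effect and antibiotic for full effect; wells of about 80 µL received 100 nL stock; the first replicate is given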
Mtb hypoxia inh growth = second read-out of Mtb hypoxia inh, no call of its own (marks repeat the call); growth inhibition, %; measured here: M. tuberculosis growth (absorbance);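 0% = vehicle and 100% = reference antibiotic; read after six days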
The depositor's hits bear a star; ? = inconclusive; . = not tested or not shown.

Start of the data: the first 5 records, to show the layout:
SMILES | PrP UTR inh | Sa RN4220 lethal | BJeLR viability | Mtb hypoxia inh | Mtb hypoxia inh growth | Bead autofluor | Sa ugtP lethal
CCn1c(SCc2nc(N)nc(N3CCCCC3)n2)nc2c1c(=O)n(C)c(=O)n2C | -5 | -3.1 | 10 | 1 | 2 | 6608 | 1
COc1ccc(C(CNC(=O)c2cc3ccccc3o2)N2CCCCC2)cc1 (stereo not drawn) | -3 | 0.7 | 7 | 6 | 6 | 4721 | 3
CCOc1ccc(N2CC(C(=O)Nc3ccc4c(c3)OCCO4)CC2=O)cc1 (stereo not drawn) | 1 | -2.5 | 7 | 6 | -4 | 3073 | 0
Cc1cnc(NC(=O)CCNC(=O)c2ccc([N+](=O)[O-])cc2)s1 | -13 | 4.2 | -4 | 11 | -4 | 2309 | 9
CNC[C@@H](C)NC[C@@H](Cc1ccccc1)NCCc1ccccc1 | -10 | . | -1 | . | . | 4076 | .

Main list, from the start:
SMILES | PrP UTR inh | Sa RN4220 lethal | BJeLR viability | Mtb hypoxia inh | Mtb hypoxia inh growth | Bead autofluor | Sa ugtP lethal
CCn1c(SCc2nc(N)nc(N3CCCCC3)n2)nc2c1c(=O)n(C)c(=O)n2C | -5 | -3.1 | 10 | 1 | 2 | 6608 | 1
COc1ccc(C(CNC(=O)c2cc3ccccc3o2)N2CCCCC2)cc1 (stereo not drawn) | -3 | 0.7 | 7 | 6 | 6 | 4721 | 3
CCOc1ccc(N2CC(C(=O)Nc3ccc4c(c3)OCCO4)CC2=O)cc1 (stereo not drawn) | 1 | -2.5 | 7 | 6 | -4 | 3073 | 0
Cc1cnc(NC(=O)CCNC(=O)c2ccc([N+](=O)[O-])cc2)s1 | -13 | 4.2 | -4 | 11 | -4 | 2309 | 9
CNC[C@@H](C)NC[C@@H](Cc1ccccc1)NCCc1ccccc1 | -10 | . | -1 | . | . | 4076 | .
COc1cc(NC(=O)COc2ccccc2)c(OC)cc1NC(C)=O | -17 | 9.4 | -2 | 4 | 9 | 3078 | -2
COC(=O)C1=C(C)N(Cc2ccco2)C(=O)N[C@@H]1c1ccccc1 | -9 | . | -4 | . | . | 2991 | .
CN(C)c1ccc(/C=N/Nc2cccc(C(=O)O)c2)cc1 | 93* | . | -6 | . | . | 3646 | .
CCOC(=O)c1cc(-c2ccco2)nn1-c1ccc(C)cc1 | -20 | -0.4 | -1 | 7 | -7 | 5208 | 5
O=C(CNC(=O)OCc1ccccc1)NC1CCCCCCC1 | -7 | -1.1 | -5 | -2 | -6 | 10139 | 5
Cc1ccc(NC(=O)CN(C)C(=O)CSc2ncc(C(F)(F)F)cc2Cl)cc1 | 3 | 3.3 | 8 | 10 | 6 | 9578 | -6
Cc1ccc(NC(=O)Cc2ncc(C(F)(F)F)cc2Cl)cc1Cl | -35 | -7.2 | 4 | . | . | 2783 | -7
CCCOC(=O)CSc1nnc(-c2cc(OC)c(OC)c(OC)c2)o1 | -13 | 1.2 | -3 | 7 | 14 | 3088 | 1
O=C(NC1CCCCC1)C1Cc2ccccc2CN1S(=O)(=O)c1ccc(F)cc1 (stereo not drawn) | -20 | 5.6 | 8 | 8 | 9 | 11086 | 1
O=C(O)c1cc(OCc2ccccc2)cc(OCc2ccccc2)c1 | -28 | 12 | 6 | -4 | -5 | 4166 | -12
CCOC(=O)/C=C1\SCC(=O)N1CC(=O)NC12CC3CC(CC(C3)C1)C2 | -12 | 1.0 | 4 | . | . | 3028 | 3
COC(=O)c1ccccc1NC(=O)c1cnn2cccnc12 | 1 | 6.5 | -15 | 19 | 14 | 3277 | 8
COc1ccc(C(=O)COC(=O)Cn2cnc3c2c(=O)n(C)c(=O)n3C)c(OC)c1 | -5 | 3.3 | 7 | 3 | 9 | 6621 | 4
CSc1cc(-c2ccccc2)n(C)c(=O)c1C#N | -15 | 9.1 | 0 | 2 | -3 | 4726 | 9
COc1ccc(/C=N\N=C2/SC(CC(=O)O)C(=O)N2c2ccc(O)cc2)cc1 (stereo not drawn) | 7 | . | -9 | . | . | 5491 | .
Cc1ccc2c(CN3CCN(CCO)CC3)cc(=O)oc2c1C | -27 | 1.8 | -1 | 2 | -2 | 10459 | 4
CCCN1CCC(=O)N(C(CSc2ccc(OC)cc2)c2ccccc2)CC1 (stereo not drawn) | . | 2.9 | . | 0 | 4 | . | -1
COc1cccc(CC2(CO)CCN(S(=O)(=O)c3ccc(OC)cc3OC)CC2)c1 | -8 | -0.9 | 1 | -14 | -9 | 4387 | 0
COc1ccc(C(=O)O)cc1NC(=S)NC(=O)Cc1ccc(Cl)cc1 | -11 | 2.0 | 8 | -4 | 8 | 3854 | -5
CCN(CC)CCCNC(=O)CSc1nc(-c2ccc(F)cc2)cc(C(F)(F)F)n1 | -15 | 7.8 | 6 | 16 | 12 | 3442 | 6
O=C(NCc1cnc2ccccn12)C1CCC(=O)N(Cc2cccc(F)c2)C1 (stereo not drawn) | -10 | -3.1 | 2 | 9 | 6 | 5448 | 12
COCc1ccc(C(=O)Nc2ccccc2C(=O)NCc2cccnc2)cc1 | -14 | 0.9 | -7 | -12 | -3 | 6331 | 3
Cc1onc(-c2ccccc2)c1-c1nc2ccccc2c(=O)o1 | -19 | 0.7 | -2 | -6 | 4 | 4492 | -4
CCN(CC)CCn1c(NCc2cc(OC)ccc2OC)nc2ccccc21 | -18 | 1.4 | -15 | . | . | 4661 | 3
O=C(c1cccc(OC2CCN(Cc3ccc(F)cc3)CC2)c1)N1CCCC1 | -8 | 1.5 | 2 | 6 | 1 | 5715 | 11
CC(Nc1ccc(Cl)c(Cl)c1)C(=O)NN (stereo not drawn) | -23 | 3.8 | 8 | -1 | 9 | 4127 | 5
O=C(Cc1ccc(Cl)cc1)Nc1ccc(S(=O)(=O)Nc2cnc3ccccc3n2)cc1 | -8 | . | 6 | . | . | 4693 | .
Cc1ccc(NC(=O)C2COc3ccccc3O2)nc1 (stereo not drawn) | -48 | -3.5 | 1 | . | . | 2297 | 5
CC(OCc1ccccc1)C(NC(=O)OC(C)(C)C)C(=O)NCC1CCCO1 (stereo not drawn) | 1 | -1.5 | -2 | -5 | -8 | ? | -4
COC(=O)N/N=C/c1cn(CCOc2ccccc2OC)c2ccccc12 | -7 | . | -7 | . | . | 4255 | .
CN(C)CCCNC(=O)C(=O)Nc1cc2c3c(c1)CC(=O)N3CCC2 | -15 | 2.7 | 2 | 3 | 8 | 5307 | 9
Nc1c(S(=O)(=O)c2ccccc2)c2nc3ccccc3nc2n1N=Cc1ccco1 | . | 0.5 | . | -4 | 2 | . | -15
COc1ccc(CC(=O)NNC(=S)Nc2ccc(Br)cc2)cc1 | -20 | 4.0 | -3 | -4 | 8 | 8444 | -2
Cc1ccc(S(=O)(=O)N(C)c2ccc(C(=O)N3CCOCC3)cc2)cc1 | -3 | 3.0 | -8 | 0 | 1 | 5603 | 2
CSc1nnc(-c2ccc(NC(N)=S)cc2)o1 | -15 | 0.4 | 0 | . | . | 5403 | -7
COc1cc(C(=O)NCc2nnc(SCC(=O)NCc3ccccc3)o2)cc(OC)c1OC | -12 | -1.0 | 5 | 2 | -3 | 3468 | 6
Nc1ccc(N=Nc2ccccc2)cc1[N+](=O)[O-] | -76 | -2.0 | . | 3 | 9 | 4015 | -19
O=C(O)C1C2C=CC(C2)C1C(=O)NCc1ccc(Cl)cc1Cl (stereo not drawn) | -14 | 7.9 | -14 | 7 | 1 | 3359 | 0
CC(C)(C)c1ccc(C(=O)NCC(=O)OCC(=O)c2ccc3c(c2)-c2ccccc2C3)cc1 | -14 | -4.5 | -3 | 6 | 16 | 2918 | -4
CC(=O)C(C(c1ccccc1)N1CCOCC1)N1CCOCC1 (stereo not drawn) | -17 | 2.8 | . | 5 | 1 | 4119 | 2
Cc1nnc(Sc2c(N)n(C)c(=O)n(C)c2=O)s1 | -40 | 5.6 | -12 | -2 | 7 | 20250* | -2
Cc1nn(CC(=O)NCCc2ccccc2)c(=O)c2cccn12 | -1 | 2.2 | 3 | 6 | 11 | 5848 | 9
O=C(O)CSCc1nc2ccccc2s1 | -35 | 2.3 | 2 | 17 | 6 | 3651 | -4
Cc1ccc(-n2nc3c(=O)n(CCCC(=O)NCc4ccc(C)o4)nc(C)c3c2C)cc1 | -4 | 2.4 | -11 | 6 | 2 | 5314 | 1
O=c1c2ccccc2sn1-c1ccc(S(=O)(=O)N2CCCCC2)cc1 | -15 | 1.4 | -7 | 4 | 5 | 6856 | -4
CCN(C(=O)CN1C(=O)/C(=C/c2ccccc2F)SC1=S)C1CCS(=O)(=O)C1 (stereo not drawn) | -19 | 4.7 | 6 | 0 | 4 | 5757 | -2
CCOc1ccc(CNc2ncnc(N)n2)cc1 | -2 | 4.6 | 2 | 8 | 11 | 3361 | 0
O=C(NC1CCCc2ccccc21)C1CCC(CNc2c(N3CCOCC3)c(=O)c2=O)CC1 (stereo not drawn) | -10 | 2.5 | . | -1 | 0 | 5213 | 6
O=C(CNC(=O)C1COc2ccccc2O1)N/N=C/c1ccc(O)cc1O (stereo not drawn) | 0 | . | -7 | . | . | 2188 | .
CCCOC(=O)c1ccc(OCC(O)CN2CCN(C(=O)c3ccccc3)CC2)cc1 (stereo not drawn) | -1 | 5.4 | 11 | . | . | 2405 | -5
CCN(Cc1ccncc1)Cc1cn[nH]c1-c1ccc(OC)cc1F | -14 | 1.7 | 2 | 3 | 0 | 2347 | 2
C/C(CC(=O)NC12CC3CC(CC(C3)C1)C2)=N\NC(=O)c1ccc(F)cc1 | -20 | . | -8 | . | . | 3599 | .
COc1ccc([C@@H]2[C@H]3CN(C(C)=O)CC=C3C(C#N)=C(N)C2(C#N)C#N)c2ccccc12 | -19 | -9.0 | -5 | . | . | 6142 | 9
CC(=O)CC(C)(C)Nc1nc2cc([N+](=O)[O-])ccc2o1 | -42 | 3.8 | -2 | 13 | 4 | 5519 | 5
COc1ccc(C)cc1S(=O)(=O)N(C)CC(=O)Nc1ccccc1 | -26 | -0.7 | -5 | . | . | 4231 | -7

The results go on:
SMILES | PrP UTR inh | Sa RN4220 lethal | BJeLR viability | Mtb hypoxia inh | Mtb hypoxia inh growth | Bead autofluor | Sa ugtP lethal
Cc1csc(NC(=O)CSc2nnc(Cc3cccn3C)n2CCc2ccccc2)n1 | 10 | 3.9 | . | . | . | 5184 | 2
O=C(c1cc2ccccc2oc1=O)N1CCN(c2ccc(N3CCOCC3)nn2)CC1 | -23 | 1.3 | 10 | 5 | 7 | 5996 | 9
CC(C)CC(=O)Nc1cccc2c1C(=O)N(c1ccccc1)C2=O | -8 | 3.4 | 1 | 6 | 6 | 2981 | -5
CCCC(=O)Nc1ccc(C(=O)NN=Cc2ccc[nH]2)cc1 | . | 2.5 | . | 11 | 1 | . | 3
COc1ccc(CC(=O)N(C)CC(=O)Nc2c(C)cccc2C)cc1S(=O)(=O)N1CCOCC1 | -11 | 3.1 | . | 5 | -4 | 3128 | 5
O=C(CCNC(=O)C1CCN(S(=O)(=O)c2ccc(F)cc2)CC1)NCc1ccccc1Cl | -8 | 1.4 | 2 | 5 | -3 | 5195 | -1
O=C(COc1ccc(Cl)cc1[N+](=O)[O-])NN=Cc1cccs1 | . | 3.7 | . | 7 | 4 | . | 0
Cc1ccccc1CNC(=O)c1ccccc1C | -6 | 3.5 | -3 | . | . | 2117 | 0
CCOc1ccc(C(=O)NN2C(=S)NC(C)(C)C=C2C)cc1 | -21 | 2.4 | -4 | 21 | 3 | 4319 | 12
Cn1c(Cn2cnc3ccccc32)nnc1SCc1ccccc1 | -16 | 3.5 | 4 | -3 | -4 | 3452 | 1
COC(=O)c1c(C)[nH]c(C(=O)CN(C)CC(=O)Nc2cccc(F)c2)c1C | -23 | 1.6 | . | 5 | 10 | ? | 18
FC(F)(F)c1cccc(N2CCN(C(=S)NC3CCCCC3)CC2)c1 | -17 | -2.0 | 2 | 0 | 0 | 2066 | -27
COc1cccc(-c2c[nH]c(=O)[nH]c2=O)c1 | -21 | 6.9 | 3 | 11 | 9 | 4500 | 8
Cc1cc(NS(=O)(=O)c2ccc(CC(C)C)cc2)no1 | -7 | 5.7 | 1 | 2 | 0 | 18585* | -9
COc1ccc(CN(C)C(=O)c2ccc(NS(=O)(=O)c3ccc(F)cc3)cc2)c(OC)c1OC | -28 | 6.7 | -17 | 0 | -5 | 6190 | 10
O=C(NCC1(N2CCCCC2)CCCCC1)c1ccc(NS(=O)(=O)c2ccc(F)cc2)cc1 | -7 | 1.4 | 6 | 5 | 11 | 5600 | 6
O=C1N=C(N2CCCCC2)SC1=C1CCCC1 | -35 | 3.1 | -6 | 19 | 13 | 8227 | -2
